Screens: PubChem BioAssay, National Center for Advancing Translational Sciences (NCATS)
HSD17B inhib: inhibitors of human HSD17B10 dehydrogenase; Q99714; recombinant HSD17B10, NADH fluorescence kinetic; many of its hits are not listed in these tables; Potency, µM (highest dose often 57.1 µM), for the others: at the top dose activity change, negative = inhibition, actives largely listed as inhibitors; 75,000 tested, 7.6% active; AID 893; active means well fitted inhibition curve with a large enough effect; inconclusive means small, poorly fitted or top-dose-only effect; inactive means no such curve, though single readings can be large or run the other way;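 further: the protocol describes HADH2 (HSD17B10) and not the HSD17B4 of the title; nearly all actives have a fitted effect of over 70% in size; most hits overshoot -100% by far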
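Enzyme plus compound, 15 min room temperature; substrate mix added (NAD+ 1 mM, beta-hydroxybutyryl-CoA 90 uM final); plates read kinetically for NADH fluorescence. HADH2 was His-tagged, E. coli-derived, 20 nM.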
Active calls of the source: *; ? = inconclusive; & = joins results of further samples; [ ] = another dose, or the depositor's remark. On the % scale 0 is the no-effect control and ±100 the full control effect; potency means the concentration at half of the fitted maximal effect. Only part of the results is shown, so the mix of outcomes need not match the whole.

SMILES	HSD17B inhib
Cc1ccccc1-c1nc(CS(=O)CC(=O)NCCCN(C)c2ccccc2)c(C)o1 (centres undefined)	-27%
COc1ccccc1-c1oc2ccccc2c(=O)c1OC	-1%
CC(=O)Nc1c(O)nc(SCC(=O)Nc2nnc(CC(C)C)s2)[nH]c1=O	4%
Cc1ccc2c(c1)N(CC(=O)NC1CCC(C)CC1)C(=O)CO2 (centres undefined)	-3%
CCC1CCCCN1CCn1c(=S)[nH]c2cc(OC)c(OC)cc2c1=O (centres undefined)	-2%
O=C(CCc1ccc(S(=O)(=O)N2CCOCC2)cc1)NCCc1ccccn1	6%
CCCCCCC#CC1C=CC(OC(=O)OCC)C(COC(=O)OCC)O1 (centres undefined)	-8%[11.4 µM]
CSc1ccccc1NC(=O)c1onc(C)c1Cl	-10%
COc1ccc(Br)cc1C(=O)NCc1cccnc1	2%
CC(=O)N1CCN(CC(=O)Nc2c(Cl)cc(Cl)cc2Cl)CC1	-8%
CCC(CC)C(=O)Nc1cccc(C(=O)NCc2ccco2)c1	6%
O=C(CN1CCN(c2ccccc2)CC1)N1CCN(c2ccccc2)CC1	2%
COc1ccccc1C(c1nnnn1C(C)(C)C)N1CCN(C(=O)c2ccco2)CC1 (centres undefined)	11%
COc1cc(NC(=O)C2CCCCC2)c(OC)cc1NC(=O)CCC(=O)NCc1ccco1	5%
Cc1ccc(NC(=O)CCSc2nnnn2-c2ccc3c(c2)OCO3)cc1C	?
O=C(c1ccc(S(=O)(=O)N2CCCCC2)cc1)c1nnc(-c2ccc(Cl)cc2)o1	3%
Cc1cc(=O)n(CCO)c(O)c1C#N	1%
OCc1ccncc1.OCc1ccncc1.[Cl][Pt]([Cl])([Cl])[Cl]	?
C[C@@]1(C(NC(=O)c2ccccc2)c2ccc(-c3ccccc3)cc2)C[C@H]1C1CCCCC1 (some centres undefined)	4%
Cc1c(C(=O)N2CCN(c3ccccc3F)CC2)sc2nc(-c3ccccc3)cn12	0%
CCOc1ccccc1N1C(=O)c2cccnc2C1=O	8%
COC(=O)c1ccc(C(NC(=O)OCc2ccccc2)/C(I)=C/[C@@H](C)C(=O)NCc2ccc(C)o2)cc1 (some centres undefined)	-10%
Cc1cc(C)n2c(SCC(=O)Nc3ncc(C(F)(F)F)cc3Cl)nnc2n1	8%
CC(C)C(OC(=O)c1ccco1)C(=O)NCc1ccccc1 (centres undefined)	-11%

Shown field by field: four of the compounds above
CCOc1ccccc1N1C(=O)c2cccnc2C1=O
  HSD17B inhib = 8%
OCc1ccncc1.OCc1ccncc1.[Cl][Pt]([Cl])([Cl])[Cl]
  HSD17B inhib = ?
COc1cc(NC(=O)C2CCCCC2)c(OC)cc1NC(=O)CCC(=O)NCc1ccco1
  HSD17B inhib = 5%
COC(=O)c1ccc(C(NC(=O)OCc2ccccc2)/C(I)=C/[C@@H](C)C(=O)NCc2ccc(C)o2)cc1 (some centres undefined)
  HSD17B inhib = -10%

More entries:
SMILES	HSD17B inhib
C=C(C)Cn1c(CNC(C)=O)nc2ccccc21	6%
CC(C)N(C(=O)CSc1nnnn1C1CCCC1)C(C)C	17%
CC1(CCC#N)N=C(SCCC#N)N(c2ccccc2)C1=O (centres undefined)	-7%
Cc1ccccc1C(=N)c1ccccc1Cc1cccc2ccccc12	3%[11.4 µM]
c1ccc2c(c1)ccc1ccccc12	?
CC1(C)CC(=O)c2cc(OCC(=O)N3CCN(c4ccccc4F)CC3)ccc2O1	32µM*
COc1ccc(Oc2ncc3nc(-c4ccccc4)c(=O)n(C4CC4)c3n2)cc1	?
Cc1ccc(N2CC(C(=O)NCC3CCCO3)CC2=O)cc1Cl (centres undefined)	7%
CCCNC(=O)Cn1cnc2sc(C(=O)N3CCN(CCC)CC3)c(C)c2c1=O	1%
COc1cccc(OC)c1OCCCN1CCOCC1	4%
COCCCn1c(SCC(=O)Nc2nnc(C)s2)nnc1-c1ccoc1C	-2%
O=S(=O)(c1ccc2ccccc2c1)n1cnc2ccccc21	-13%
CN(Cc1cc(C(C)(C)C)cc(Br)c1O)Cc1cc(C(C)(C)C)cc(Br)c1O	7%[11.4 µM]
COc1ccccc1CNC(=O)C(C)NS(=O)(=O)c1ccc(C)cc1 (centres undefined)	-8%
COc1ccc(-c2c3c(nc4sc(C(=O)Nc5cc(C)on5)c(N)c24)CCC3)cc1	32µM*
CN1CCN(C(=O)c2cc3nc(-c4ccc(F)cc4)cc(C(F)(F)F)n3n2)CC1	-9%
c1ccc2cc(-c3cc(-c4cc(-c5ccc6ccccc6c5)on4)no3)ccc2c1	-6%[11.4 µM]
Cc1nc(SCC(=O)N2CCOCC2)c2ccsc2n1	-2%
C=CCn1c(=O)c2c(nc3n2CCN3c2cccc(Cl)c2C)n(C)c1=O	1%
CSCC[C@@H]1NC(=O)C/C=C\[C@@H](C)COC(=O)[C@@H](CCSC)NC(=O)C/C=C\[C@@H](C)COC1=O	-4%[11.4 µM]
CSc1nc(NCc2ccco2)c2c3c(sc2n1)CN(C)CC3	?
COc1cc(OC)nc(NC(=O)CSc2nc3ccccc3o2)n1	7%
O=C(CCn1nnc2ccccc2c1=O)NCC1CCC(C(=O)O)CC1 (centres undefined)	5%
O=C(CSc1nnc2n(C3CCCC3)c(=O)c3ccccc3n12)N1CCCCCC1	0%
Nc1nnc(CCS(=O)(=O)c2cc(Cl)ccc2Cl)s1	-2%
CCCCOc1cccc(OCCCC)c1C(=O)Nc1cc(C)on1	-25%
CC1(C)CC(NC(=O)CCC2CCCC2)CC(C)(C)N1	2%
CC1=C(C(=O)N2CCCCCC2)C2(CCC(C)CC2)OC1=O (centres undefined)	5%
COc1cc2c(cc1OC)C(C)N(C(=O)c1cc3n(n1)C(C(F)(F)F)CC(c1ccco1)N3)CC2 (centres undefined)	?
C=CCOC(=O)C(C#N)c1nc2ccccc2nc1N1CCN(Cc2ccccc2)CC1 (centres undefined)	-3%
Cn1c(CSc2ncccn2)nnc1SCC(=O)N1CCCc2ccccc21	2%
NC(=O)COc1ccc(NC(=O)OCc2ccccc2)cc1	9%
Cc1noc(C)c1S(=O)(=O)N1CCC(C(=O)N2CCN(c3ccccc3Cl)CC2)CC1	-6%
CCN(CC)c1ccc(C(=O)OCC(=O)c2ccco2)cc1	1%
CCn1c(=O)c2cc(C(=O)N3CCN(C(=O)c4ccco4)CC3)sc2c2ccccc21	32µM*
Cc1[nH]nc2c1C1(CCN(C(=O)OCc3ccccc3)CC1)C(C#N)=C(N)O2	-6%
Cc1ccc2nc(-c3ccc(S(=O)(=O)N4CCOCC4)cc3)cn2c1	7.9µM*
Cc1ccc(C(=O)NCCCN2CCOCC2)cc1N1CCCC1=O	-1%
Cc1cc(C(=O)COC(=O)CN(C)S(=O)(=O)c2ccc(Cl)cc2)c(C)n1CC1CCCO1 (centres undefined)	0%
Cc1cc(=O)oc2c(C)c(OCC(=O)N(C)C)ccc12	32µM*
O=S(=O)(c1ccc(F)cc1)N1CCC(O)(c2ccc3c(c2)OCO3)CC1	4%
CC(=O)N1CCC(N(C(=O)Nc2ccc(C)c(C)c2)C2CCCC2)CC1	10%
CC(C)OCCCNC(=O)c1sc(=S)n(C)c1N	-11%
Cc1ccc(-c2nnc(N3CCN(S(C)(=O)=O)CC3)c3ccccc23)cc1	5%
COc1ccc(S(C)(=O)=O)cc1S(C)(=O)=O	-2%
O=C(Nc1cnc2ccccc2c1)c1ccco1	4%
OC(CN1CCN(c2ccccc2)CC1)c1ccc2c(c1)CCN2 (centres undefined)	14%
O=C(c1ccncc1)N1CCC[C@@]2(CCN(c3ncccn3)C2)C1	-8%
O=C(CCN1C(=O)C2C3C=CC(C3)C2C1=O)NCc1cccnc1 (centres undefined)	6%
CC1CCc2nc3ccc(S(=O)(=O)N4CCC(C(=O)NC5CCCC5)CC4)cc3c(C(=O)O)c2C1 (centres undefined)	-11%
CCCCOC(=O)n1c(SCC(=O)N(C)C)nc2ccccc21	-18%
CCC(O)OC(O)CC (centres undefined)	2%&0%
O=C1COc2ccc(C(=O)NCc3ccco3)cc2N1	5%
CCC(Sc1ccc2nnc(-c3ccc(F)cc3)n2n1)C(=O)O (centres undefined)	32µM*
CCS(=O)(=O)c1nnnn1-c1ccccc1S(C)(=O)=O	1%
O=C(CCNS(=O)(=O)c1cccc2nonc12)NC1CCCc2ccccc21 (centres undefined)	-2%
CCC1=C(OC(=O)N(CC)CC)N2C(=O)OC(=NCC(=O)OC)[C@]2(Cc2ccccc2)[C@H]2C1=CC[C@H]1C(=O)N(c3ccccc3)C(=O)[C@H]12	?
O=C(CCCCn1c(=O)[nH]c2ccsc2c1=O)NCc1cccnc1	2%
O=C(c1ccc(COc2c(F)c(F)cc(F)c2F)o1)N1CCN(c2ccc(Cl)cc2)CC1	-11%
CCOC(=O)c1oc2ccccc2c1NC(=O)c1ccc(S(=O)(=O)N2CCCC2)cc1	25µM*

(list continues)
SMILES	HSD17B inhib
CSc1nc(NCCOCCO)c2sc3nc(-c4ccco4)c4c(c3c2n1)CCC4	5%
COc1ccc(CC(=O)NC(C)c2nnc(SCC(=O)Nc3nc(C)cs3)n2C)cc1 (centres undefined)	9%
CCOc1ccc(-c2nnc3ccc(SC)nn23)cc1	-6%
CC(C)N(Cc1nc(-c2ccc(Cl)cc2)no1)C(=O)CCC1CCCC1	-14%
COC(=O)c1ccc(-c2nc(-c3cccs3)no2)cc1	-6%
CCc1nc2oc3cc(OC)ccc3c(=O)c2c(=O)n1-c1ccccc1	1%
O=C(NCc1ccco1)c1sc(=S)n2c1[nH]c(=O)c1ccccc12	25µM*
O=C(Cn1c(=O)sc2ccccc21)NCc1ccccn1	8%
CCn1c(=S)sc2c(=O)n(-c3ccccc3)c(SCC(=O)NCc3ccco3)nc21	-11%
NC(=O)N[C@H](CC(=O)O)C(=O)O	1%[11.4 µM]
COc1cc(-c2nc(N)n[nH]2)cc(OC)c1OC	-27%
CC(=O)c1cccc(N(CC(=O)NCC2CCCO2)C(=O)CCC(=O)Nc2cc(C)on2)c1 (centres undefined)	17%
CCn1c(SCC(=O)c2cc(OC)ccc2OC)nnc1-c1ccncc1	-8%
COc1ccc2[nH]c3c(NCCN(C(C)C)C(C)C)ncnc3c2c1	32µM*
Cc1oc(-c2ccccc2)nc1Cn1cccc1C1=NC(c2ccccc2)CO1 (centres undefined)	?
COc1ccc(N2CCN(S(=O)(=O)/C=C/c3ccccc3)CC2)cc1	9%
CCN(CC)C(=O)N1CCC(NC(=O)c2ccccc2)CC1	8%
Cc1cc(C)cc(N(CC(=O)NCc2ccco2)S(=O)(=O)c2c(C)noc2C)c1	-2%
CCc1ccc(N(CC(=O)O)S(=O)(=O)c2c(C)noc2C)cc1	0%
Cn1c([N+](=O)[O-])cnc1COC(N)=O	5%
C=CCn1c(C#N)c(N)sc1=N	3%
CCC(=O)Nc1sc2c(c1C#N)CC(C)(C)NC2(C)C	16%
CCOCCCn1c(=S)[nH]c2cc3c(cc2c1=O)OCO3	-14%
COCCn1c(SCCN2CCCCC2)nc2ccccc2c1=O	3%
CCc1nccn1S(=O)(=O)c1ccc(Br)cc1Br	1%
CCCn1c(-c2ccc(F)cc2)nc2c(NCCN3CCOCC3)nc(C)nc21	?
Cc1ccc2[nH]c(C(=O)O)c(NC(=O)CN3CCN(c4cccc(C)c4C)CC3)c2c1	4%
COC(=O)C1=C(C)N=C2SCCC(=O)N2C1/C=C/c1ccccc1 (centres undefined)	-2%
CC(C)(C)c1ccc(/C=C/C(=O)Nc2ccc3c(c2)OCCO3)cc1	-6%
COc1ccc(CCNC(=O)CN(C)S(=O)(=O)c2cccc3nsnc23)cc1OC	16%
CCSc1nnc(NC(=O)C(CC)Oc2ccccc2)s1 (centres undefined)	2%
COc1ccc(-n2c(SC3CCOC3=O)nc3ccccc32)cc1 (centres undefined)	-8%
COc1ccc(-c2nnc(SCCC(=O)O)n2-c2ccccc2)cc1	2%
COc1ccc(-c2noc(-c3ccccc3-c3ccccc3)n2)cc1OC	?
CCC(c1nnnn1CCOC)N1CCN(C(=O)c2ccco2)CC1 (centres undefined)	-8%
Cc1cc(N)n2ncc(-c3cccc(Br)c3)c2n1	20µM*
CCN(CC)C(=O)CSc1nnc(CCCCCNC(=O)OC(C)(C)C)o1	5%
COc1ccc(NC(=O)c2ccc(-c3ccc(-c4noc(C)n4)cc3C)cc2)cc1N1CCN(C)CC1	?
CC1CCCN(c2ccc(C(=O)NCc3cccs3)cn2)C1 (centres undefined)	3%
CC1(C)CC(=O)C2=C(C1)OC(c1ccncc1)C(C#N)=C2N (centres undefined)	6%
COC(=O)c1ccc(CSc2nc(-c3ccc(OC)cc3)nc3c2c(=O)n(C)c(=O)n3C)o1	-11%
